# Screening data deposited in PubChem by several laboratories.
# FGF22 binding – FGF22 (human) thermal shift binding. Q9HCT0. recombinant FGF22 thermal shift, SYPRO orange fluorescence; percent of sucrose octasulfate shift, DMSO zero. calls only at 9.99 µM. 340,000 tested, 1.5% active. AID 651658;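 active means melting point raised past a set limit in the mean and every replicate; three in four hits are not shown here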
# Target sequence (Q9HCT0 whole entry, looked up): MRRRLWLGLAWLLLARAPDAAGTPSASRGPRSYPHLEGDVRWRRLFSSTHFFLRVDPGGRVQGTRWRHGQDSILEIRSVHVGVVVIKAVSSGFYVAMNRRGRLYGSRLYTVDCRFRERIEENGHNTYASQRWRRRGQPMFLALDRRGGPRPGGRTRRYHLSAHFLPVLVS
# E coli growth – E. coli growth inhibition; Escherichia coli growth, OD600, 23 h; active compounds read low; 330,000 tested, 0.21% active; AID 1053175; OD600 absorbance (concentration not given with the values);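 active means OD600 absorbance below the run mean of sample wells minus 3.6 SD, in any replicate, cut at about 0.56 in these data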;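 further: stock transfer was 300 nL into about 60 µL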
# Beta cell apopt – blocks beta cell apoptosis; INS-1E cytokine-induced death, ATP luminescence, 48 h; percent of positive-control rescue, neutral wells zero; protection from apoptosis, % (no concentration beside the values); 300,000 tested, 0.8% active;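 active means all replicates at 75% or more, or half of them and the mean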;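 further: 0% = cytokine-treated negative control wells and 100% = positive control rescue; higher means more ATP so stronger rescue from cytokine killing; wells of about 40 µL received 100 nL stock; the first replicate is given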
# MLL AF4-AF9 inh – MLL-AF4/AF9 protein interaction inhibition. AlphaScreen, biotin-AF4 peptide binding to FLAG-AF9. inhibition, % at 10 µM. AID 651704. 350,000 tested, 0.47% active;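 active means every replicate reaching a set inhibition limit, whatever the replicate mean, cut at about 25% in these data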;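 further: 0% = plate neutral control median and 100% = total signal loss; the record names both 10 and 1 µM as test concentration; the first replicate is given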
# Target sequence (P42568 whole entry, looked up): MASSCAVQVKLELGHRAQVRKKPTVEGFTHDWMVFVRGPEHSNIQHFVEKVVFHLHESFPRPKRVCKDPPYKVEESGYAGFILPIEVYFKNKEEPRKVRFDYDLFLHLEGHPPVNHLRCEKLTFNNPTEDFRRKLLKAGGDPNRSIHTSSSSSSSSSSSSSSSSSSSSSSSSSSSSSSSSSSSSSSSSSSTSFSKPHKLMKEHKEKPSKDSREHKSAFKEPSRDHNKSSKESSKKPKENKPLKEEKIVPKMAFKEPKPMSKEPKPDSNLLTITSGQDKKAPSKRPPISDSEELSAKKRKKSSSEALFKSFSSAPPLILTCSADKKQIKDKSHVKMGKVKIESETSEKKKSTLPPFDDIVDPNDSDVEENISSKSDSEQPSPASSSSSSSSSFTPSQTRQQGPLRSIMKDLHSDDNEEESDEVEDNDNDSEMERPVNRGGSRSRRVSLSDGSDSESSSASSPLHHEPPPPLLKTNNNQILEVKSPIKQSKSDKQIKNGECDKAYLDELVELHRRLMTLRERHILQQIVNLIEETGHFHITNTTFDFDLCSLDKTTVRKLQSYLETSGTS
# T cruzi inh – blocks replication of Trypanosoma cruzi. T. cruzi beta-gal in NIH3T3, luminescence, 90 h. AID 1885. 300,000 tested, 1.4% active. inhibition, % (concentration not given with the values);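 active means mean inhibition across valid replicates above about 55%, limit read from the data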;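 further: signal also drops with host cell toxicity which is not excluded here; 0% = plate median of DMSO wells and 100% = zero luminescence signal; higher percent means less beta-gal luminescence so fewer parasites; stock transfer was 50 nL into about 50 µL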
# A1 inh – inhibitors of the anti-apoptotic protein A1, read as caspase activation; MEF A1-2A-BIM cells, Caspase-Glo 3/7 luminescence, 3 h; percent of clofoctol response, vehicle zero; caspase activation, % (test concentration not listed); 330,000 tested, 0.066% active;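 active means over half of replicate activation scores above 10%, or exactly half above 10 with the replicate mean above 10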;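 further: wells of about 30 µL received 50 nL stock; many hits fall short of the cut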
# UCH37 DUB inh – human UCH37 deubiquitinating enzyme inhibition; Q9Y5K5; purified proteasome/UCH37, Ub-AMC cleavage fluorescence; inhibition, % (no concentration beside the values); 330,000 tested, 0.33% active;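 active means mean of two replicates above 20%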;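 further: 0% = compound-free wells with enzyme and 100% = wells lacking proteasome; stock transfer was 100 nL into about 20 µL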
# Target sequence (Q9Y5K5 whole entry, looked up): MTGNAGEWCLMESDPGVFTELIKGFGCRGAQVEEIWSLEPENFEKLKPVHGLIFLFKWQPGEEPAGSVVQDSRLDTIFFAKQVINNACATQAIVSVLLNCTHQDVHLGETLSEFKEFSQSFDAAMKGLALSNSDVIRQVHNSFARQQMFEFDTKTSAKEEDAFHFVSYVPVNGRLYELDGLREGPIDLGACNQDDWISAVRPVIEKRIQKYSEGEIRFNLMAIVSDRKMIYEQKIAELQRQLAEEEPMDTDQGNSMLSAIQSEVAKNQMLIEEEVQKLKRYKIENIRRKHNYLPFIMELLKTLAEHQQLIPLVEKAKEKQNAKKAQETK
#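 Test system – human UCH37 enzyme supplied as purified proteasome complex · Incubation – 30 min preincubation with enzyme, 25 min cleavage at room temperature · Detection – AMC fluorescence from Ub-AMC cleavage, excitation 355 nm, emission 460 nm · Benchmarks – no-proteasome wells (full inhibition) and compound-free wells (no inhibition)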
# Ecoli rRNA inh – selective bacterial rRNA inhibition in E. coli; E. coli WT GFP vs humanized-ribosome RFP mutants, fluorescence, 24 h; active compounds read low; DMSO median 0, no signal -100; GFP signal change (wild-type ribosome), % (no concentration beside the values); 350,000 tested, 1.6% active; AID 720706;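 active means significant combined selectivity score with lowered wild-type GFP, culture density cut under 30%, mutant RFP and density less affected; inactive means any of these conditions unmet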; further: one replicate is shown; some compounds called inactive have numbers as strong as hits
# Ecoli rRNA inh OD600 – also measured in Ecoli rRNA inh; calls as there; OD600 change, %; measured here: OD600 growth;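 optical density of the mix in the first replicate; 0 = DMSO median and -100 = no signal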
# Ecoli rRNA inh RFP – also measured in Ecoli rRNA inh; calls as there; RFP signal change, %; measured here: RFP humanized mutant strains;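 first replicate; 0 = DMSO median and -100 = no signal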
# * hit, by the source's call; i = inactive; . = no result given; + = active, no number. An excerpt, so the mix of outcomes need not match the whole.
mol	FGF22 binding	E coli growth	Beta cell apopt	MLL AF4-AF9 inh	T cruzi inh	A1 inh	UCH37 DUB inh	Ecoli rRNA inh	Ecoli rRNA inh OD600	Ecoli rRNA inh RFP
COc1cc(/C=N/NS(=O)(=O)c2ccc(C)c([N+](=O)[O-])c2)ccc1O	i	.	6	-7.5	-35	0.0	.	0	0	-0.8
COc1ccc(Cl)cc1N1C(=O)CC(Sc2ccccc2N)C1=O (centres undefined)	i	0.65	-6	-4.7	3	1.7	4.2	2	3	1.9
CCCOc1ccccc1/C=C(\C#N)C(=O)Nc1cccnc1	i	0.65	-5	1.2	-1	-2.8	6.5	3	-13	0.5
CC(C)NC(=O)c1onc(CSc2cccc3ccccc23)c1C(=O)O	i	0.67	-3	1.9	-15	1.2	1.6	-39	-63	-7.2
CCC(/C=N/NC(=O)C(=O)N/N=C/C(CC)CC)CC	i	.	-5	-3.9	8	0.4	.	5	3	3.2
COCCN(C(=O)COC(=O)/C(=C/c1ccccc1)NC(C)=O)c1c(N)n(Cc2ccccc2)c(=O)[nH]c1=O	i	0.63	-1	-2.3	-1	-1.1	-2.6	.	.	.
Cc1ccccc1C(=O)N1CCN(c2ccc(NC(=O)c3ccc4c(c3)OCO4)cc2)CC1	.	0.71	4	2.4	12	0.6	-3.7	16	13	-0.1
CN(C)C(=O)c1ccc(Nc2ncnc3sc4c(c23)CCCCC4)cc1	i	0.66	-4	1.6	-3	-0.7	0.4	-13	-36	-3.3
Cc1nc2c(N=Nc3ccccc3F)c(N)nn2c(N)c1C#N	i	0.7	6	0.6	40	0.1	5.7	22	22	2.7
COCCSc1ccccc1C(=O)Nc1ccccc1C(C)C	i	0.69	-2	-8.5	-3	-1.0	2.4	3	4	1.7
CC1=NCCN1CCNC(=O)Nc1ccc(F)cc1	i	.	-2	3.1	5	0.2	.	4	7	-0.5
COC(=O)c1ccc(C(=O)OC)c(NC(=S)N2CCN(c3ccc(F)cc3)CC2)c1	.	0.7	-5	.	8	0.8	0.2	.	.	.
CN1C(=S)SC(N(O)C(=O)NC2CCCCC2)C1(C)C (centres undefined)	.	0.7	0	.	-13	-0.5	4.4	.	.	.
O=C(Nc1cccnc1)c1ccc(NS(=O)(=O)c2cc([N+](=O)[O-])ccc2Cl)cc1	i	0.7	-4	8.1	1	0.0	2.1	12	12	-0.7
CC(C)(c1ccccc1)c1ccc(OCCCNCCO)cc1	.	0.66	.	.	-10	-2.2	-0.3	.	.	.
Cc1c(C(=O)N2CCC(Cc3ccccc3)CC2)cccc1[N+](=O)[O-]	.	0.68	-3	2.5	16	0.5	-0.4	-28	-31	-3.3
COc1ccc(CCNC(=O)CSCc2ccc([N+](=O)[O-])cc2)cc1OC	.	0.67	-6	.	-6	0.3	3.3	.	.	.
C=CCn1c(Cc2cccs2)nnc1SCC(=O)c1cccc(Br)c1	.	0.7	-2	.	15	-0.6	1.7	.	.	.
CN(C)CCNc1nc2c(c(=O)[nH]c(=O)n2C)n1CCCc1ccccc1	i	0.68	-6	6.6	38	-0.5	2.9	9	8	-0.8
NS(=O)(=O)c1ccc(CCNC(=O)CSc2ccccc2)cc1	.	0.74	0	.	-7	0.6	-5.2	.	.	.
N#Cc1ccccc1OCC(=O)Nc1nnc(C2CC2)s1	i	0.69	-3	0.6	.	0.3	-1.8	.	.	.
CC(C)CC(=O)N1CCN(C(=O)CCC2CCCC2)CC1	.	0.76	1	.	.	0.5	-0.3	.	.	.
CCC(C)C(NC(=O)OC(C)(C)C)C(=O)NC(Cc1ccccc1)C(=O)OC (centres undefined)	.	0.75	-5	.	-17	-0.8	1.4	.	.	.
CC(=O)Cc1cc2cc([N+](=O)[O-])ccc2oc1=O	i	0.63	-1	0.0	-1	1.2	4.7	-13	11	-0.9
Cc1ccc(-n2c(=O)c3c(C)c(C)sc3n(Cc3cc(=O)n4ccccc4n3)c2=O)cc1C	.	0.69	0	.	6	0.1	-1.4	.	.	.
COCC(C)NC(=O)CSc1nc2ccccc2c(=O)n1CCc1ccc(S(N)(=O)=O)cc1 (centres undefined)	i	0.65	.	-2.8	-14	0.2	-3.2	5	6	0.2
COc1ccc(NC(=O)CS(=O)(=O)c2cn(CC(=O)N3CCOCC3)c3ccccc23)cc1	i	0.71	-1	-6.9	-5	1.2	6.5	0	-1	0.5
CCCCn1c(SCc2c(C)noc2C)nc2cc(S(N)(=O)=O)ccc21	.	0.74	-17	.	4	0.0	7.2	.	.	.
COc1ccc(-c2csc(NC(=O)Cc3ccccc3F)n2)cc1OC	i	0.7	5	1.2	11	-0.4	2.6	-6	-32	20
COc1ccccc1N(C(C)=O)C1SC(=O)N(c2ccccc2)C1=O (centres undefined)	.	0.71	-2	.	-8	0.1	3.6	.	.	.
COCCNC(=O)Cn1nc(-c2ccc(Cl)cc2)c2ccccc2c1=O	i	0.67	0	-2.4	-12	0.2	1.0	4	13	2.1
CC(=O)N1CCN(c2ccc(NC(=O)c3ccc(N4CCCC4)c([N+](=O)[O-])c3)cc2Cl)CC1	i	0.7	14	8.1	40	-0.5	5.8	-2	-3	-3.9
Cn1c(=O)c2c(nc(NCc3ccc4c(c3)OCO4)n2Cc2ccccc2F)n(C)c1=O	.	0.81	24	.	-16	-1.4	6.4	.	.	.
COc1cccc(NC(=O)c2ccc3c(c2)N(CC(=O)N2CCCCC2)C(=O)C(C)(C)O3)c1	.	0.68	-4	.	3	0.3	2.9	.	.	.
COc1ccc(CN2CCOCC2)cc1OC	.	0.74	-1	.	-19	0.1	3.3	.	.	.
COc1cc(CNCc2ccccn2)ccc1OCc1cccc(Cl)c1	i	0.63	30	18	2	-0.7	1.7	-41*	-27*	2.9*
Cc1cc(OCC(=O)NCCN2CCOCC2)cc(C)c1Br	.	0.67	2	.	-8	-0.5	-0.2	.	.	.
O=C1CN(c2nc3ccccc3n3cnnc23)CC(=O)N1CCc1ccccc1	i	0.68	0	25*	-3	0.7	3.5	4	-1	1.5
C/C=C1\COC(C(=O)NCc2ccncc2)(C(F)(F)F)C=C1C=C1CCCCC1 (centres undefined)	i	.	-11	-1.4	16	-1.3	-0.2	-3	-3	0.2
CCOc1c(Cl)cc(/C=N/NC(N)=S)cc1OC	i	.	6	3.8	34	0.1	.	-20	-29	43

# 6 compounds out of the list, ordered by heavy-atom count, descending.
mol	FGF22 binding	E coli growth	Beta cell apopt	MLL AF4-AF9 inh	T cruzi inh	A1 inh	UCH37 DUB inh	Ecoli rRNA inh	Ecoli rRNA inh OD600	Ecoli rRNA inh RFP
CC(=O)N1CCN(c2ccc(NC(=O)c3ccc(N4CCCC4)c([N+](=O)[O-])c3)cc2Cl)CC1	i	0.7	14	8.1	40	-0.5	5.8	-2	-3	-3.9
C/C=C1\COC(C(=O)NCc2ccncc2)(C(F)(F)F)C=C1C=C1CCCCC1 (centres undefined)	i	.	-11	-1.4	16	-1.3	-0.2	-3	-3	0.2
CN(C)CCNc1nc2c(c(=O)[nH]c(=O)n2C)n1CCCc1ccccc1	i	0.68	-6	6.6	38	-0.5	2.9	9	8	-0.8
COc1cc(/C=N/NS(=O)(=O)c2ccc(C)c([N+](=O)[O-])c2)ccc1O	i	.	6	-7.5	-35	0.0	.	0	0	-0.8
N#Cc1ccccc1OCC(=O)Nc1nnc(C2CC2)s1	i	0.69	-3	0.6	.	0.3	-1.8	.	.	.
CC1=NCCN1CCNC(=O)Nc1ccc(F)cc1	i	.	-2	3.1	5	0.2	.	4	7	-0.5

# Next entries.
mol	FGF22 binding	E coli growth	Beta cell apopt	MLL AF4-AF9 inh	T cruzi inh	A1 inh	UCH37 DUB inh	Ecoli rRNA inh	Ecoli rRNA inh OD600	Ecoli rRNA inh RFP
COc1ccc(NS(=O)(=O)c2ccc(Cl)c(N)c2)cc1Br	+	0.72	-3	-0.5	-23	-0.8	3.2	-59	-81	-20
Cc1ccc(C(=O)NCc2ccco2)cc1S(=O)(=O)Nc1cccc(Cl)c1	.	0.71	-4	.	3	-0.2	2.0	.	.	.
CCOC(=O)N1CCN(S(=O)(=O)c2ccc(OC)c(Cl)c2)CC1	.	0.66	-1	.	-4	-0.9	3.9	.	.	.
c1ccc(CN2CCC(Nc3nc(-c4cccnc4)nc4ccccc34)CC2)cc1	i	0.67	8	9.5	59*	0.1	10	-33*	-25*	10*
CCC(C)N(C(=O)COC(=O)c1cn(CC)c2nc(C)ccc2c1=O)C1CCS(=O)(=O)C1 (centres undefined)	.	0.67	-4	.	-2	0.1	-0.4	.	.	.
CC(=O)N1CC(C)Oc2ccc(S(=O)(=O)NC(CC(=O)O)c3ccc(C)cc3C)cc21 (centres undefined)	i	0.73	-7	0.6	4	-0.8	6.0	3	12	0.6
CCc1c(C)c(C#N)c2nc3ccccc3n2c1NC	i	0.67	-1	2.4	-9	0.8	-15	6	2	0.4
CCNc1ccc(C(=O)OCC)cc1NC(=O)c1cccc(S(=O)(=O)N2CCOCC2)c1	.	0.66	0	.	7	0.7	2.7	18	14	-0.2
O=C(NCc1cccs1)C1(S(=O)(=O)c2ccccc2)CC=CC1	i	0.7	-6	-1.5	-4	0.7	1.6	7	5	-0.5
CN(CC(=O)Nc1ccc(F)cc1)C(=O)CCc1nc2sc3c(c2c(=O)[nH]1)CCCC3	i	0.68	5	-3.7	-7	1.0	-3.4	-3	11	1.3
O=C(NCCc1csc(-c2cccnc2)n1)c1ccc(Cl)cc1	i	0.77	-1	-9.5	22	0.1	-0.6	-16	-22	-4.5
CS(=O)(=O)Nc1ccc(-c2cn3c(n2)SCC3)cc1	i	0.69	-1	-0.4	-11	0.9	1.8	9	4	-2.6
c1ccc(-n2nnnc2-n2cnc3ccccc32)cc1	i	0.7	-4	-4.1	-8	-0.6	4.5	9	0	0.3
CC1CCCC(C)N1S(=O)(=O)c1ccc(NC(=O)c2ccccc2C(=O)N2CCOCC2)cc1 (centres undefined)	.	0.74	.	.	-14	-0.2	4.3	.	.	.
Cc1cccc2cc(/C=C/C(=O)c3ccco3)c(Cl)nc12	i	0.7	-7	0.1	14	-0.6	5.7	-1	-11	4.6
COc1ccc(OC/C(O)=C(\C#N)c2nc3ccccc3[nH]2)cc1	.	0.68	-7	.	-1	-1.6	-2.2	.	.	.
Cc1cc2ncn(S(=O)(=O)c3ccc(S(=O)(=O)N4CCCCCC4)cc3)c2cc1C	.	0.64	-1	.	-18	-1.1	5.7	.	.	.
CSc1nsc(/C=C/Nc2ccc(C(=O)O)cc2)c1C#N	i	0.68	-8	2.8	-3	-0.8	-6.2	-10	-18	-0.3
COC(=O)c1ccccc1NC1c2ccccc2C(=O)N1c1cccnc1 (centres undefined)	i	0.7	5	55*	-11	.	-0.6	-4	-7	-3.7
O=C(NC1CC2CCCC(C1)N2C(=O)Nc1ccccc1)c1ccccc1 (centres undefined)	i	0.65	3	0.7	1	-0.3	0.2	2	4	-1.8
